Bioassay records from PubChem.
KCNQ2 inh = KCNQ2 channel blockers in CHO-K1 cells – cell-based, FluxOR thallium flux, B-score, primary screen (AID 2156). 20 min; stronger effect = lower value; only compounds with negative scores are shown here; some inactives read as strong as hits. B-score at 10 µM. O88943. 310,000 tested, 1.1% active;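 active = fluorescence ratio B-score at most minus 3 library SDs, with starting brightness B-score within 2 library SDs, cut at about -5.5 in these data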
Target sequence (O88943 whole entry, looked up): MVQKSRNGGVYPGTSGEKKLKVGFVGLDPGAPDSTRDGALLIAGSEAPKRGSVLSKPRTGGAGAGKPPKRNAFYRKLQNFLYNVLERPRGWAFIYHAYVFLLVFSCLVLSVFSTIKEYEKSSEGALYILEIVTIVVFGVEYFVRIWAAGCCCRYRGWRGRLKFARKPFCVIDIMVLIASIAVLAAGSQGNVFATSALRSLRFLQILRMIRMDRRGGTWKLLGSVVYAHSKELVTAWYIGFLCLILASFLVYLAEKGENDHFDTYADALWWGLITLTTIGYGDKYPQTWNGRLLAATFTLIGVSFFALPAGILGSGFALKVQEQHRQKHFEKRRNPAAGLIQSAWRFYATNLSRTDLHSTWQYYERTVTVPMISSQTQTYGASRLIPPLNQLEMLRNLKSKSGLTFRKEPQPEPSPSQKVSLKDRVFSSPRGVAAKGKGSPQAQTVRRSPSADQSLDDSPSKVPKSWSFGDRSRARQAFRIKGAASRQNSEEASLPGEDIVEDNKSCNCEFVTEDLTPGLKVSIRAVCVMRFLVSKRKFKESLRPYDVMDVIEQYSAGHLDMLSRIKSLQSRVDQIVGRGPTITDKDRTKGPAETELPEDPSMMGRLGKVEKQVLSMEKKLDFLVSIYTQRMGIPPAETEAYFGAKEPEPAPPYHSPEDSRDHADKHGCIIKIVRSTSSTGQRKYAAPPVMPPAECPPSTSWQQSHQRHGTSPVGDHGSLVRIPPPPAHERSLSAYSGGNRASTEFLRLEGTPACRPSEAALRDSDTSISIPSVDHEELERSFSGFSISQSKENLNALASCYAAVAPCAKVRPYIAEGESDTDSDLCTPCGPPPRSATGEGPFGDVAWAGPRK
KCNQ2 inh baseline = recorded beside KCNQ2 inh, whose call it bears; B-score; measured here: initial fluorescence intensity artifact check;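 brightness before thallium and not channel activity; 0 = typical well and far values either way flag optical interference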
Numbers without * were called inactive; i = inactive.

Compound,KCNQ2 inh,KCNQ2 inh baseline
CC1C(=O)C(C)C(c2ccco2)NC1c1ccco1 (configuration not stated),i,1.5
Oc1ccc(-c2csc(-c3cccnc3)n2)cc1O,i,-0.22
CCOC(=O)c1sc(N(Cc2ccccc2)C(=O)COC(=O)c2cnccn2)nc1C,i,-0.36
O=C1c2ccccc2NC(c2ccc(F)cc2)N1Cc1ccccc1 (configuration not stated),i,1.12
COc1cc(-c2nc(-c3ccc(NC(=O)c4ccc(Br)o4)cc3)no2)cc(OC)c1OC,i,0.69
O=C(O)c1ccc(S(=O)(=O)N(Cc2ccc(F)cc2)C2CCCCC2)cc1,i,-0.27
O=C(N/N=C/c1ccccn1)c1cc(-c2ccc3ccccc3c2)n[nH]1,i,-1.85
COc1ccc(NC(=O)CCC(=O)OCc2ccc([N+](=O)[O-])cc2)cc1,i,-1.03
CSc1nnc(C2CCCN2)n1C (configuration not stated),i,0.3
NC(=O)C1Cc2ccccc2CN1C(=O)c1cccc(Oc2ccccc2)c1 (configuration not stated),i,2.41
CCN1CCN(Cc2nc3c(c(=O)n(C)c(=O)n3C)n2CC(=O)c2ccccc2)CC1,i,-1.99
COc1ccc(NC(=O)c2sccc2SCC#N)cc1,i,5.49
CC(=O)NCc1ccc(C(=O)CCl)s1,i,0.02
COC(=O)c1ccc(/C=C/C(=O)c2ccc(OC)cc2)cc1,i,1.8
CCN1C(=O)N[C@H](c2ccc(Br)cc2)C(C(C)=O)=C1C,i,-0.22
Cc1ccc(-c2noc(CN3CCN(Cc4ccccc4)CC3)n2)cc1,i,-0.04
COCCCNC(=O)CCc1nnc2ccc(N3CCC(C)CC3)nn12,i,0.99
CCCCC[C@H]1CN(CCCC)C(=O)[C@@H]1CC(=O)NCc1ccccc1,i,-1.26
CCCCC(=O)Nc1ccc(C2C(=O)c3ccccc3C2=O)cc1,i,-0.04
O=C(Cc1cc(=O)[nH][nH]1)N/N=C/c1ccccc1[N+](=O)[O-],i,0.35
COC(=O)c1ccc(C2N=C(c3cccs3)CC(c3ccccc3O)N2)cc1 (configuration not stated),i,-0.36
O=C(Cc1c(F)cccc1Cl)Nc1ccc(S(=O)(=O)N2CCCC2)cc1,i,1.27
COc1cc(NC(=O)c2c(Cl)cnn2C)c(OC)cc1Cl,i,-0.12
CC1CCN(CC(=O)Nc2ccc(S(=O)(=O)N3C(C)CCCC3C)cc2)CC1 (configuration not stated),i,-0.1
Cc1ccc(C2(C(=O)N3CCC(n4nc(-c5ccccc5)oc4=O)CC3)CC2)cc1,i,-1.25
CC(=O)Nc1ccc(NC(=O)c2ccccc2CCc2ccccc2)cc1,i,-0.34
CCN(Cc1ccccc1)Cc1c(F)cccc1F,i,0.24
COC(=O)c1ccc(NC(=O)CSc2nnc(COc3ccccc3)n2C)cc1,i,-0.87
O=c1c2c3c(sc2n2cnnc2n1CCc1ccccc1)CCCC3,i,-1.27
Cc1ccccc1C(=O)N/N=C/c1ccc([N+](=O)[O-])s1,i,1.08
Cc1cc2ncn(C(=O)c3cc(-c4ccccc4)nc4ccccc34)c2cc1C,i,0.92
CCOc1ccc(OCC(=O)N(C)c2c(N)n(Cc3ccccc3)c(=O)[nH]c2=O)cc1,i,1.96

Reformatted with two lines to a compound: part of the list above.
Value order: KCNQ2 inh	KCNQ2 inh baseline
CC(=O)Nc1ccc(NC(=O)c2ccccc2CCc2ccccc2)cc1
    i	-0.34
CCN(Cc1ccccc1)Cc1c(F)cccc1F
    i	0.24
COC(=O)c1ccc(NC(=O)CSc2nnc(COc3ccccc3)n2C)cc1
    i	-0.87
O=c1c2c3c(sc2n2cnnc2n1CCc1ccccc1)CCCC3
    i	-1.27

Remaining list, next part.
Compound,KCNQ2 inh,KCNQ2 inh baseline
COc1ccc(C2=NN(C(C#N)c3ccc(OC)c(OC)c3)C(c3ccccc3)C2)cc1 (configuration not stated),i,-0.16
CCOC(=O)Cc1csc(NC(=O)COc2c(C)cccc2C)n1,i,-0.94
COCCN(C(=O)COC(=O)/C=C/c1ccc(C(F)(F)F)cc1)c1c(N)n(Cc2ccccc2)c(=O)[nH]c1=O,i,0.9
C=CCN1CCN(C(c2cccc(OC)c2OC)c2nnnn2CCC(C)C)CC1 (configuration not stated),i,-0.67
CCn1c(COc2cccc3ccccc23)nnc1SCC(=O)OC1CCCCC1,-8.55*,-1.53*
CCOc1cccc2cc(C(=O)N3CCc4ccccc4C3)c(=O)oc12,i,-0.52
CCOC(=O)c1ccc(CN(Cc2ccc(C)cc2)S(=O)(=O)c2cccc([N+](=O)[O-])c2)cc1,i,0.04
NS(=O)(=O)c1ccc(NC(=O)COc2ccc(S(=O)(=O)N3CCCC3)cc2)cc1,i,-0.65
O=C(c1ccccc1)c1ccc(-c2ccc(O)cc2)cc1,i,0.12
Cc1ccccc1C(=O)NC1CCN(Cc2nnnn2CCc2ccccc2)CC1,i,-0.49
CCOc1ccc(-c2[nH]nc3c2C(c2ccc(O)cc2)C(C#N)=C(N)O3)cc1 (configuration not stated),i,3.46
O=C(c1ccc2ccccc2c1)N1CCN(Cc2ccccc2)CC1,i,0.36
COc1ccc(C/C(N)=N/n2cnnc2)cc1,i,-0.02
CCn1ncc(Br)c1C(=O)NC1CCCCCCC1,i,-0.71
O=C(C[n+]1ccc(Cc2ccccc2)cc1)Nc1ccccc1,i,0.11
CC(C)(C)n1cnc2cc(NCc3ccccc3O)ccc21,i,-0.95
COc1cccc2cc(C(C)N(CCCN3CCOCC3)C(=S)Nc3ccc(C)c(C)c3)oc12 (configuration not stated),i,-0.66
COc1ccc(OC)c(-c2cc(C(=O)Nc3c(C)nn(Cc4ccccc4)c3C)no2)c1,i,-0.18
Cc1oc(C(C)(C)C)cc1C(=O)Nc1cccc(/C=C\C(=O)O)c1,i,0.12
Cc1cc(C)n(CC(=O)NC2C(=O)N3C(C(=O)O)=C(CSc4nnc(C)s4)CSC23)n1 (configuration not stated),i,0.13
O=C(COC(=O)c1cccc([N+](=O)[O-])c1)NCc1ccc2c(c1)OCO2,i,2.29
COc1ccc(OC)c(C2=NOC(C(=O)Nc3cc(C)nn3-c3ccccc3)C2)c1 (configuration not stated),i,1.15
O=C(CSc1nnc2c(n1)[nH]c1ccccc12)Nc1ccc(S(=O)(=O)Nc2ncccn2)cc1,i,-0.74
O=C(NCC1CCCCC1)c1cc([N+](=O)[O-])ccc1Cl,i,0.03
Cc1cc(NC(=O)NN2CCOCC2)nn1-c1c(Cl)cccc1Cl,i,-1.4
CCc1ccc2[nH]c(=O)c(CN(CCN(CC)CC)C(=O)NC3CCCCC3)cc2c1,i,1.91
O=C1Nc2ccccc2N=C(c2ccccc2)C1N1CCOCC1 (configuration not stated),i,-0.39
C/C(=N\NC(=O)c1ccccc1F)c1cccc(NC(=O)c2ccc(C)cc2)c1,i,-0.25
COc1ccc(NC2CCCN(C(=O)CSc3ccncc3)C2)cc1 (configuration not stated),i,1.26
COc1ccccc1OCc1ccc(C(=O)n2nc(C)c(Cl)c2C)o1,i,-1.35
O=C(Nc1ccc(F)cc1)C1CCCN(S(=O)(=O)c2cccc3nonc23)C1 (configuration not stated),i,0.48
O=C(O)CC(C(=O)O)N1C(=O)/C(=C/c2ccc(-c3nc4ccccc4s3)o2)SC1=S (configuration not stated),i,3.15
COc1cccc2cc(C(=O)C3=C(O)C(=O)N(CCN4CCOCC4)C3c3cccc(Cl)c3)oc12 (configuration not stated),i,-0.61
CCOc1cccc(C(=O)Nc2nccs2)c1,i,1.77
CCN(c1ccccc1)S(=O)(=O)c1ccc(C(=O)Nc2ncccc2C)cc1,i,2.63
O=C(CCS(=O)(=O)Cc1ccccc1)Nc1nncs1,i,-1.62
CCCOc1ccc(C2c3c(oc4ccccc4c3=O)C(=O)N2CCCN2CCOCC2)cc1 (configuration not stated),i,-0.44
CCCCCn1c(SCC(=O)CC(=O)OCC)nc2cc(C(=O)N3CCC(C(N)=O)CC3)ccc2c1=O,i,0.26
O=S(=O)(Cc1ccccc1)C1CCCCC1O (configuration not stated),i,-1.22
O=C1CC(c2ccccc2)c2cccc(F)c21 (configuration not stated),i,1.28
O=C(O)c1cccnc1SC1CC(=O)N(Cc2ccccc2)C1=O (configuration not stated),i,-0.14
COc1ccc(CNC(=O)c2cc(C)nc3ccccc23)cc1OC,i,0.42
COc1ccc(/C=N/N=C2\CC3CCC2(C)C3(C)C)cc1O (configuration not stated),i,0.1
Oc1c(Br)cc(Br)cc1CNc1ccccn1,i,0.88
COC(=O)C1=C(C)N(c2ccc(OC)cc2)C(C)=C(C(=O)OC)C1c1ccccc1,i,0.18
Cc1cccc(-c2nnc(SCC(=O)Nc3nc4c(s3)CCCC4)n2C)c1,i,0.02
CCSC1=N/C(=C\c2cccnc2)C(=O)N1c1ccccc1,i,0.08
COc1cnn(-c2cc(Oc3ccc(C)cc3)ncn2)c(=O)c1Cl,i,1.49
CN(Cc1ccc(F)cc1)C(=O)c1cc(COc2ccc(F)cc2F)on1,i,0.01
O=C(CN(C(=O)CCC(=O)Nc1nccs1)c1cccc(F)c1)NCc1ccc2c(c1)OCO2,i,-1.28
COCCCN=C1NN=C(c2cc(C)n(Cc3ccco3)c2C)CS1,i,0.56
CC(=O)c1ccc(NC(=O)CN2CCN(c3ccccc3)CC2)cc1,i,0.23
COc1ccccc1NC(=O)c1ccc(-c2ccccc2[N+](=O)[O-])o1,i,0.58
Cc1ccc(NS(=O)(=O)c2c(C)[nH]c(C)c2C(=O)N2CCCC2)cc1Cl,i,0.53
CCCOC(=O)c1cc(=O)[nH]c2ccccc12,i,2.85
Cc1ccn(C(=O)c2cc3c(C)nn(-c4ccccc4)c3s2)n1,i,0.02

Additional records.
Compound,KCNQ2 inh,KCNQ2 inh baseline
Cc1ccc(OCC(=O)Nc2ccc(S(=O)(=O)N(C)C3CCN(C)CC3)cc2)c(C)c1,i,-0.38
COc1cc(C(=O)OCC(=O)Nc2cc(S(=O)(=O)N3CCOCC3)ccc2C)ccc1OCC(C)C,i,-1.37
CCOC(=O)C(=O)NNc1ccccc1C,i,-1.22
CC(C)CCN1C(=O)c2ccccc2C1C(=O)NCc1cccnc1 (configuration not stated),i,0.84
CC(C)N(C(=O)CN1C(=O)NC(c2ccccc2)(c2ccccc2)C1=O)C(C)C,i,-2.32
Cc1ccsc1C(=O)OCC(=O)Nc1cccc(S(=O)(=O)N2CCOCC2)c1,i,0.05
CCCC1=C([O-])C2N=CC=CC2=[N+](c2ccccn2)C1=O (configuration not stated),i,-0.87
CN(Cc1cccnc1)C(=O)CNC(=O)COc1ccccc1,i,0.77
CCOC(=O)c1ccccc1NC(=S)N1CCC(C)CC1,i,-0.09
CC1CCN(C(=O)CN(Cc2ccc(Cl)cc2)S(C)(=O)=O)CC1,i,0.18
COc1cccc(-c2cc(C(F)(F)F)n3ncc(C(=O)N4CCc5ccccc5C4)c3n2)c1,i,-1.57
O=C(CSc1nccc(=O)[nH]1)NN(c1ccccc1)c1ccccc1,i,0.41
O=C(Nc1ccc2[nH]c(=O)[nH]c2c1)c1cccc([N+](=O)[O-])c1,i,0.01
Cc1ccc(Sc2ncccc2C(=O)NC2CCCCCC2)cc1C,i,-0.8
COc1ccc(OC)c(S(=O)(=O)N2c3ccccc3CC2C)c1 (configuration not stated),i,1.33
O=C1C2C3C=CC(C4CC34)C2C(=O)N1/N=C/c1c[nH]c2ccccc12 (configuration not stated),i,1.75

Exported with values ahead of the structure: part of the list above.
KCNQ2 inh,KCNQ2 inh baseline,structure
i,-0.09,CCOC(=O)c1ccccc1NC(=S)N1CCC(C)CC1
i,0.18,CC1CCN(C(=O)CN(Cc2ccc(Cl)cc2)S(C)(=O)=O)CC1
i,-1.57,COc1cccc(-c2cc(C(F)(F)F)n3ncc(C(=O)N4CCc5ccccc5C4)c3n2)c1
i,0.41,O=C(CSc1nccc(=O)[nH]1)NN(c1ccccc1)c1ccccc1
i,0.01,O=C(Nc1ccc2[nH]c(=O)[nH]c2c1)c1cccc([N+](=O)[O-])c1
i,-0.8,Cc1ccc(Sc2ncccc2C(=O)NC2CCCCCC2)cc1C
i,1.33,COc1ccc(OC)c(S(=O)(=O)N2c3ccccc3CC2C)c1 (configuration not stated)

(next part)
Compound,KCNQ2 inh,KCNQ2 inh baseline
CCn1cc(C(=O)NCCc2ccc(Cl)cc2)c(=O)c2cc(S(=O)(=O)N(C)C)ccc21,i,-0.88
O=C(C1=C[C@@H](C2CCCCC2)C[C@@H](OCCCCO)O1)N1CCN(Cc2ccc3c(c2)OCO3)CC1,i,-0.85
CCC(C(=O)OCC(=O)NC(=O)NC(C)(C)C)c1ccccc1 (configuration not stated),i,1.15
COc1ccc2oc(C(=O)NCCc3ccccc3)c(C)c2c1,i,1.04
COc1ccc(N2CC(C(=O)N[C@@H](C)C(=O)NC3CCCC3)CC2=O)cc1 (some centres not stated),i,-0.82
O=C(CN1CCN(C(=O)c2ccco2)CC1)Nc1cc(Cl)ccc1Cl,i,2.08
O/N=C/c1cn(-c2ccccc2)nc1-c1ccccc1,i,-3.97
CC1(C)Cc2c(C#N)c(N3CCN(C(=O)c4ccccc4)CC3)nc(Cc3ccccc3)c2CO1,i,0.13
COC(=O)Nc1ccc(S(=O)(=O)N2CCCC(C(=O)O)C2)cc1 (configuration not stated),i,-0.98

Some of the compounds tested; rates above refer to the full screens.
